Polio RdRp inh = poliovirus RNA polymerase inhibition; % elongation, % (compound at 16.7 µg/mL); P03300; 0.66% of 150,000 active; poliovirus polymerase elongation, fluorescence polarization; stronger effect = lower value; in the data active means % elongation below about 90%; further: some results filed as inactive read as strong as hits
Target sequence (P03300 1749-2209 limits assumed): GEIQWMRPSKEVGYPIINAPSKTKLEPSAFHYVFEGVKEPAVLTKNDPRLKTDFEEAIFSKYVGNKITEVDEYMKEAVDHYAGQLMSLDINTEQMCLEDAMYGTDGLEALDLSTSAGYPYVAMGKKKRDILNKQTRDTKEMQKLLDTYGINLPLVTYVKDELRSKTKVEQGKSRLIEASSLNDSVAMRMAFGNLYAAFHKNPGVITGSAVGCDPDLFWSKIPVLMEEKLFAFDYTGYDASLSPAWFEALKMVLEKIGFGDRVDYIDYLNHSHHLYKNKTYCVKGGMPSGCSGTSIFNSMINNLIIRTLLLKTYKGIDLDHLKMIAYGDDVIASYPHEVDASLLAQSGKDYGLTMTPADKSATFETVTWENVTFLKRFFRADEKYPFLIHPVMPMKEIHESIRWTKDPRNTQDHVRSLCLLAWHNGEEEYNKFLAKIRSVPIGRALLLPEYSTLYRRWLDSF
Polio RdRp inh intensity = recorded beside Polio RdRp inh, whose call it bears; % elongation; measured here: total intensity read-out; formula for this scale not given here;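 total fluorescence in place of polarization; lower means less elongation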
The depositor's hits bear a star.

SMILES	Polio RdRp inh	Polio RdRp inh intensity
COc1ccccc1CNS(=O)(=O)c1cc(C(=O)Nc2cccc(C(F)(F)F)c2)ccc1F	111	116
Cc1ccccc1C(=O)OCc1cc(=O)n2nc(C3CC3)sc2n1	109	114
CCC(=O)N1CCc2cc(Br)cc(S(=O)(=O)N3CCCC(C(=O)NCc4ccc(OC)cc4)C3)c21 (configuration not stated)	103	107
O=C(Nc1ccc(C(=O)OCc2cc(=O)n3nc(C4CC4)sc3n2)cc1)c1cccc(Cl)c1	110	100
COc1ccc(C2=C(C)C(=O)N(Cc3ccc(C(=O)Nc4ccc(F)cc4C)cc3)S2(=O)=O)cc1	107	111
Cc1ccc2cccc(NC(=O)COc3ccccc3[N+](=O)[O-])c2n1	107	110
CCOc1ccc(-c2nc(SC(C(C)=O)C(=O)N(C)C)c3c(=O)n(C)c(=O)n(C)c3n2)cc1 (configuration not stated)	105	107
O=C(O)c1ccc(CNCc2ccccc2Cl)s1	103	107
Cc1sc2ncn(CC(=O)Nc3cccc(C(F)(F)F)c3)c(=O)c2c1S(=O)(=O)N1CCN(C)CC1	105	108
CCOC(=O)N1CCc2c(sc3c2c(=O)n(-c2ccc(F)cc2)c(=O)n3CC(=O)c2ccccc2)C1	103	102
Cc1ccc(C(=O)c2oc3ccccc3c2NC(=O)Cc2coc3ccc(C)cc23)cc1	114	116
COc1ccc(-n2nc(C(=O)NCCc3ccc(Cl)cc3)c3c4ccccc4n(C)c3c2=O)cc1Cl	106	110
CCN1CCN(CCCNC(=O)CS(=O)(=O)Cc2nc(-c3cccc(OC)c3)oc2C)CC1	106	107
Cc1cccc(Cn2c(=O)n(-c3ccccc3C)c(=O)c3c2c2cc(C)ccc2n3C)c1	111	107
COc1ccc(Nc2c(-c3ccc(C)o3)nc3ccc(Cl)cn23)cc1	105	111

Compound profiles (already shown). Order of values: Polio RdRp inh	Polio RdRp inh intensity
Shown for COc1ccc(-n2nc(C(=O)NCCc3ccc(Cl)cc3)c3c4ccccc4n(C)c3c2=O)cc1Cl → 106	110
Shown for Cc1ccc2cccc(NC(=O)COc3ccccc3[N+](=O)[O-])c2n1 → 107	110

(next part)
SMILES	Polio RdRp inh	Polio RdRp inh intensity
COCc1cc(C)nc2sc(C(=O)Nc3cc(C)ccc3F)c(N)c12	105	106
CC(C)CN(CCCNC(=O)c1cn(C)c2ccc(S(=O)(=O)N(C)C3CCCCC3)cc2c1=O)CC(C)C	108	109
CCCC(=O)OCc1cnc(C)c2oc(=O)c(C(=O)Nc3cccc(C(F)(F)F)c3)cc12	105	109
CCCCC(CC)CNC(=O)C1CCC(CNS(=O)(=O)c2cccc3nsnc23)CC1 (configuration not stated)	105	111
O=C(CSc1cn(CCNC(=O)c2c(F)cccc2F)c2ccccc12)Nc1ccccc1F	109	111
COc1cc(O)ccc1C1CC(=O)Nc2c1c(=O)nc(SCc1ccccc1C)n2C (configuration not stated)	103	95
CCC(=O)N1CCc2cc(S(=O)(=O)NCCC(=O)Nc3ccc(OC)c(OC)c3)ccc21	109	106
Cc1cc(C)c2oc(C(=O)Nc3c(C)n(C)n(-c4ccccc4)c3=O)cc(=O)c2c1	112	117
COc1cc(Cl)c(NS(=O)(=O)c2cc(-c3cc(C)no3)ccc2OC)c(OC)c1	101	107
Cc1ccc(C)c(CN2C(=O)c3ccccc3S(=O)(=O)c3ccc(C(=O)NCCCN4CCCC(C)C4)cc32)c1 (configuration not stated)	108	108
CCOc1ccc(N2CC(C)Cn3c2nc2c3c(=O)n(Cc3c(F)cccc3Cl)c(=O)n2C)cc1 (configuration not stated)	112	118
COc1ccc(N2CCN(CC(O)COc3ccc(C(C)C)c(C)c3)CC2)cc1 (configuration not stated)	106	107
Cc1cccc(CC(=O)NC2CC(=O)N(c3cccc(F)c3)C2)c1 (configuration not stated)	108	112
Cc1ccc(N2CCn3c2nc2c3c(=O)n(CCCc3ccccc3)c(=O)n2C)cc1	102	99
Cc1ccc(NC(=O)c2ccc(NC(=O)CCS(=O)(=O)c3cccs3)cc2)cc1F	101	92
COc1ccccc1CNS(=O)(=O)c1c(C(=O)N2CCC(C)CC2)c(C)n(C)c1C	107	110
COc1ccc(CCNC(=O)CSc2nc3nc(C)c(Cc4ccc(C)cc4)c(C)n3n2)cc1OC	104	103
COc1ccc(NC(=O)c2cccc(N3CCCS3(=O)=O)c2)cc1	109	111
COc1ccc(OC)c(NC(=O)Cn2cnc3ccc(S(=O)(=O)N4CCC(C)CC4)cc3c2=O)c1	102	105
Cc1cc(-c2nc3ncccc3o2)ccc1NC(=O)COc1cc(C)c(Cl)c(C)c1	102	101
CCC(=O)N1CCc2cc(Br)cc(S(=O)(=O)NCCc3ccccc3Cl)c21	106	110
O=C(NCCCN1CCN(c2ccccc2)CC1)c1nnc(Cc2ccc(F)cc2)o1	112	109
CC1=C(C(=O)Nc2ccc(Cl)cc2)C(c2cccs2)n2nc(SCc3cccc(Cl)c3)nc2N1 (configuration not stated)	108	109
COc1ccc(CNC(=O)c2ccc(CS(=O)Cc3ccccc3Cl)o2)cc1 (configuration not stated)	112	109
CCOC(=O)C1CCC(CN(Cc2ccc(OC)cc2)S(=O)(=O)c2ccc(F)c(C(=O)Nc3ccc(C)c(C)c3)c2)CC1 (configuration not stated)	108	109
CCOC(=O)c1noc2ncnc(Nc3cccc(OC)c3)c12	99	107
O=C(NCCS(=O)(=O)N1CCN(c2ccccc2)CC1)C1CC(=O)N(c2ccccc2)C1 (configuration not stated)	104	103
Cc1ccc(NC(=O)C(=O)NCC(c2cccnc2)N2CCN(Cc3ccccc3)CC2)cc1 (configuration not stated)	108	110
CCc1ccc(-n2nc(C)c3c(C)cc(=O)n(CC(=O)Nc4ccc(OC)c(OC)c4)c32)cc1	108	109
CSc1ccc(C2c3c(oc4cc(C)cc(C)c4c3=O)C(=O)N2Cc2ccco2)cc1 (configuration not stated)	112	112
COc1ccc(-c2cc(C(=O)Nc3c(C)n(C)n(-c4ccccc4)c3=O)no2)cc1	100	102
CCOc1cccc2c1N[C@@H](c1ccc(C(=O)O)cc1)[C@H]1CC=C[C@@H]21	99	102
CCc1ccc(OCC(=O)NC(Cc2c[nH]c3ccccc23)C(=O)O)cc1 (configuration not stated)	104	110
CCOC(=O)c1cc(-c2ccc(OC)cc2)n(CCC(=O)Nc2nc3ccc(OCC)cc3s2)c1C	103	112
Cc1ccc(CNC(=O)CCS(=O)(=O)c2cc3c4c(c2)CCN4C(=O)CC3)cc1	108	116
CCc1ccc(OCC(=O)N(Cc2cccs2)c2ccc(Cl)cc2)cc1	111	109
O=C(Nc1c(C(=O)c2ccccc2)oc2ccccc12)c1cc(=O)c2ccccc2o1	112	113
Cc1cccc(OCCCSc2nc(-c3ccc(C(C)(C)C)cc3)nc3cc(=O)[nH]n23)c1C	110	112
COc1ccccc1CNc1ccc(-c2nc(C)no2)cc1[N+](=O)[O-]	108	112
CCOc1ccc(NC(=O)CSC2=Nc3ccccc3C3=NC(CCC(=O)NCc4ccco4)C(=O)N23)cc1 (configuration not stated)	105	107
COc1cccc(CN(C(=O)c2oc3ccccc3c2C)C2CCS(=O)(=O)C2)c1 (configuration not stated)	111	112
CSc1cccc(NC(=O)C2CCCN(S(=O)(=O)c3ccc4c(c3)CCCN4C(C)=O)C2)c1 (configuration not stated)	100	105
COC(=O)c1ccc2c(=O)n(CCCCCC(=O)NC(C)C)c(=O)[nH]c2c1	103	101
CCOC(=O)c1c(S(=O)(=O)NCC(=O)NCc2cccc(C)c2)c(C)n(C)c1C	109	112
Clc1ccc(CN2CCc3nc(Nc4ccc5c(c4)OCCO5)ncc3C2)cc1	111	106
Cc1noc(C)c1S(=O)(=O)NCCc1csc2nc(-c3ccc(Cl)cc3)nn12	105	110
Cc1ccc(NC(=O)c2sc3ncnc(N(C)C4CCCCC4)c3c2C)cc1	112	100
COc1ccc(-n2cc(-c3ccccc3)c3c(SC(C)C(C)=O)ncnc32)cc1 (configuration not stated)	105	106
Cc1ccc(Cl)cc1N1CCN(C(=O)c2cc(S(=O)(=O)N3CCCCC3)cn2C)CC1	106	112
CC(Oc1ccccc1)C(=O)Nc1nnc2n1CCS2 (configuration not stated)	102	108
CC(NC(=O)c1ccc(Cn2c(=O)c3cccn3c3cccnc32)cc1)c1ccccc1 (configuration not stated)	104	99
COc1cccc(-c2nc(S(=O)(=O)c3ccc(Cl)cc3)c(NCc3ccccc3)o2)c1	104	99
Cc1nn2c(=O)cc(COC(=O)c3ccco3)nc2s1	106	113
CCCOc1ccccc1C(=O)N1CCCCC1CCN1CCCCC1 (configuration not stated)	110	108
CCOC(=O)CSc1ccc2nnc(CCNS(=O)(=O)c3ccccc3)n2n1	102	103
Cc1ccccc1Cn1c(CN2CCC(C(=O)NCc3cccnc3)CC2)cc2ccccc21	108	109
Cc1ccc(CCNC(=O)C(CC(C)C)NS(=O)(=O)c2ccc3c(c2)oc(=O)n3C)cc1 (configuration not stated)	106	107
CCCN(C(=O)c1cn(C)c(=O)c2ccccc12)c1ccccc1C	106	107
COc1cc(OC)c(NS(=O)(=O)c2cc(-c3cnc(C)o3)ccc2OC)cc1Cl	111	104
Cc1cccc(NC(=O)CSc2ncc(-c3ccc(Br)cc3)[nH]2)c1	108	103

Part of the list above, in CSV form:
Molecule,Polio RdRp inh,Polio RdRp inh intensity
O=C(Nc1c(C(=O)c2ccccc2)oc2ccccc12)c1cc(=O)c2ccccc2o1,112,113
Cc1cccc(OCCCSc2nc(-c3ccc(C(C)(C)C)cc3)nc3cc(=O)[nH]n23)c1C,110,112
COc1ccccc1CNc1ccc(-c2nc(C)no2)cc1[N+](=O)[O-],108,112
CCOc1ccc(NC(=O)CSC2=Nc3ccccc3C3=NC(CCC(=O)NCc4ccco4)C(=O)N23)cc1 (configuration not stated),105,107
COc1cccc(CN(C(=O)c2oc3ccccc3c2C)C2CCS(=O)(=O)C2)c1 (configuration not stated),111,112
CSc1cccc(NC(=O)C2CCCN(S(=O)(=O)c3ccc4c(c3)CCCN4C(C)=O)C2)c1 (configuration not stated),100,105
COC(=O)c1ccc2c(=O)n(CCCCCC(=O)NC(C)C)c(=O)[nH]c2c1,103,101
CCOC(=O)c1c(S(=O)(=O)NCC(=O)NCc2cccc(C)c2)c(C)n(C)c1C,109,112
Clc1ccc(CN2CCc3nc(Nc4ccc5c(c4)OCCO5)ncc3C2)cc1,111,106
Cc1noc(C)c1S(=O)(=O)NCCc1csc2nc(-c3ccc(Cl)cc3)nn12,105,110
Cc1ccc(NC(=O)c2sc3ncnc(N(C)C4CCCCC4)c3c2C)cc1,112,100
COc1ccc(-n2cc(-c3ccccc3)c3c(SC(C)C(C)=O)ncnc32)cc1 (configuration not stated),105,106
Cc1ccc(Cl)cc1N1CCN(C(=O)c2cc(S(=O)(=O)N3CCCCC3)cn2C)CC1,106,112
CC(Oc1ccccc1)C(=O)Nc1nnc2n1CCS2 (configuration not stated),102,108
CC(NC(=O)c1ccc(Cn2c(=O)c3cccn3c3cccnc32)cc1)c1ccccc1 (configuration not stated),104,99
COc1cccc(-c2nc(S(=O)(=O)c3ccc(Cl)cc3)c(NCc3ccccc3)o2)c1,104,99
Cc1nn2c(=O)cc(COC(=O)c3ccco3)nc2s1,106,113
CCCOc1ccccc1C(=O)N1CCCCC1CCN1CCCCC1 (configuration not stated),110,108
CCOC(=O)CSc1ccc2nnc(CCNS(=O)(=O)c3ccccc3)n2n1,102,103
Cc1ccccc1Cn1c(CN2CCC(C(=O)NCc3cccnc3)CC2)cc2ccccc21,108,109
Cc1ccc(CCNC(=O)C(CC(C)C)NS(=O)(=O)c2ccc3c(c2)oc(=O)n3C)cc1 (configuration not stated),106,107
CCCN(C(=O)c1cn(C)c(=O)c2ccccc12)c1ccccc1C,106,107
COc1cc(OC)c(NS(=O)(=O)c2cc(-c3cnc(C)o3)ccc2OC)cc1Cl,111,104
Cc1cccc(NC(=O)CSc2ncc(-c3ccc(Br)cc3)[nH]2)c1,108,103

Carrying on.
SMILES	Polio RdRp inh	Polio RdRp inh intensity
CCCC(=O)NCC1(N(C)C)CCCCC1	107	113
COc1ccc(NC(=O)c2c(C)oc3ccc(O)c(CN4CCCC4)c23)cc1Cl	106	109
CN(C)CCCn1c(-c2ccc(Cl)cc2)csc1=Nc1ccccc1	106	105
COCCNC(=O)c1ccc2c(c1)N=C(C)c1cc(C)ccc1S2	108	112
CCOC(=O)c1ccc(N2CCN(c3cc(C)ccc3C)CC2)c(NC(=O)Nc2ccccc2)c1	116	116
CCOc1ccccc1NC(=O)C1CCN(S(=O)(=O)c2ccccc2)CC1	107	110
CC(=O)c1cccc(NC(=O)c2sc(-n3nc(C)c(CCC(C)C)c3C)nc2C)c1	104	106
CCC(C)n1c(=N)c(C(=O)NC2CCCCC2)cc2c(=O)n3cc(C)ccc3nc21 (configuration not stated)	111	108
N#CC1=C2SCN(C3CCCCC3)CN2C(=O)CC1c1c(F)cccc1Cl (configuration not stated)	69*	73*
O=C(NCCCN1CCN(c2cccc(Cl)c2)CC1)Nc1ccccc1C(F)(F)F	107	105
Cc1cc(O)c(CN2CCN(c3ccc(F)cc3)CC2)c2oc(=O)cc(C)c12	109	111

Assay outcomes from PubChem BioAssay.

Some of the compounds tested; rates above refer to the full screens.
